Source: PubChem BioAssay
RanGTP-Impb inh: inhibitors of RanGTP-importin-beta interaction, primary screen, biochemical, FRET, CFP-Ran, YFP-importin-beta, homogeneous; inhibition, % (no concentration beside the values); actives 1.1% (n = 300,000); cell-free CFP-Ran/YFP-importin-beta FRET ratio; AID 2216, 2009;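 active means most replicates above 15%; inconclusive means exactly half above 15%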;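 further: 0% = DMSO wells and 100% = Ran loaded with GDP instead of GTP; wells of about 40 µL received 100 nL stock; the first replicate is given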
LANA-H2A inh: blockers of LANA interaction with H2A/H2B – biochemical, FP readout, HTS, primary screen | actives 0.6% (n = 320,000) | Protein LANA1 (Human herpesvirus 8 type P (isolate GK18)), Q9QR71 | cell-free LANA-H2A/H2B peptide, fluorescence polarization | inhibition, % (concentration not given with the values); in the data active means inhibition mostly above about 10%, no sharp cut-off; inactive means mostly below about 6.7%;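 further: stock transfer was 7.5 nL into about 10 µL; 0% = median of vehicle wells and 100% = median of positive control wells; one replicate is shown; the record names a cut of 25% in any replicate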
HNF4A DNA FP: change in binding of human HNF4A to DNA, primary screen, biochemical, fluorescence polarization, FITC-DNA; actives 0.3% (n = 360,000); activity change, % at 10 µM; 1 h; in the data active means activity change above about 30%, passing the limit was not always enough;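 further: controls were the assay level and a saturating level of protein; the project sought stronger binding though the title names inhibitors; some compounds called inactive have numbers as strong as hits; positive values seem to mean higher polarization but the record does not say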
Target sequence (P41235 whole entry, looked up): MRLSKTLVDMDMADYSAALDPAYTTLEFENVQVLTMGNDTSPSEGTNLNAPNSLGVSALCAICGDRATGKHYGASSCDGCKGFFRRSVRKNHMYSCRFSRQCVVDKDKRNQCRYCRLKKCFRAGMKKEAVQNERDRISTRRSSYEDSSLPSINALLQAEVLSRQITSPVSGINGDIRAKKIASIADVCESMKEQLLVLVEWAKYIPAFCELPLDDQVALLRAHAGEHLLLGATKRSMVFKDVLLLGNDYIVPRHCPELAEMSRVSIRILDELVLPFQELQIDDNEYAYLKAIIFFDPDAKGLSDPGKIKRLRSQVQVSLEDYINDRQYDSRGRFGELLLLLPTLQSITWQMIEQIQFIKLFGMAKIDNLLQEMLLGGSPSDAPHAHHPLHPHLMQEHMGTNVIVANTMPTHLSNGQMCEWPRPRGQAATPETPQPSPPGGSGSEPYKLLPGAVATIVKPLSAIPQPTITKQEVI
Vif A3G: inhibitors of Vif binding to APOBEC3G peptide, primary screen, biochemical, TR-FRET, GST-Vif 1-94, biotin-A3G peptide, dose response retest (AID 1117319); actives 0.57% (n = 260,000); TR-FRET GST-Vif / biotin-A3G peptide binding; higher % means a stronger effect; test concentration not given here; strong numbers were not always called active; inhibition, %, or IC50 in µM where a hit was titrated;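 active means above the screen mean plus three standard deviations and confirmed in dose response; inconclusive means results disagree or hit not tested in dose response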;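 further: Vif residues 1-94 fused to GST binding biotinylated APOBEC3G peptide 110-148; 0% = full assay without inhibitor and 100% = GST in place of GST-Vif; retest series ran down from 100 µM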
Calb FLC: C. albicans growth inhibition with fluconazole, primary screen, CaCi-2 strain, Alamar Blue fluorescence; AID 1979, 2009; growth inhibition, % (concentration not given with the values); C. albicans CaCi-2 (fluconazole-resistant clinical isolate) + fluconazole, 48 h; actives 0.57% (n = 300,000);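 active means most replicates above 75%; inconclusive means exactly half above 75%; inactive means most below 75%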;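 further: all wells also contain fluconazole at 8 µg/ml as a sub-toxic cotreatment; 0% = median of DMSO wells and 100% = median of geldanamycin control wells; wells of about 8 µL received 7.5 nL stock; the first replicate is given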
Beta2AR agonist: beta2AR agonists driving receptor internalization, primary screen, cell-based, FAP fluorogen, flow cytometry. Am2.2-beta2AR cells; reference of the scale not given here. response, % (concentration not given with the values). actives 0.43% (n = 340,000);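 active means response above a set limit, near 3 SD of response in nonfluorescent compounds, cut at about 42% in these data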;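 further: stock transfer was 100 nL into about 11 µL; a reference agonist was the positive control; negative values mostly stem from fluorescent compounds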
Target sequence (P07550 whole entry, looked up): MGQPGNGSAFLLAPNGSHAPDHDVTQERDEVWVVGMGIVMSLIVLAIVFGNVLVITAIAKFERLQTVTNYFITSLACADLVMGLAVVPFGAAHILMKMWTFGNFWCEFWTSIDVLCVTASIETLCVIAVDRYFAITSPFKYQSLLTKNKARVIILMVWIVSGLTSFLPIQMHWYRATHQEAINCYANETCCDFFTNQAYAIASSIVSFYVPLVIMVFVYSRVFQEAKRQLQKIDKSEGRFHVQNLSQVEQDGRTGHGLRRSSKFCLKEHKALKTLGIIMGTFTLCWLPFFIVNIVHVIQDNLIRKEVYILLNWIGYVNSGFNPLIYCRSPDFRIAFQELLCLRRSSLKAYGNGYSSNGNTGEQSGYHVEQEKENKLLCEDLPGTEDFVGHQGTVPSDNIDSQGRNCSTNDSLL
ALR H2O2 inh: inhibitors of human ALR sulfhydryl oxidase, primary screen, biochemical, H2O2 detection, HRP-luminol luminescence, single point; FAD-linked sulfhydryl oxidase ALR (Homo sapiens), P55789; purified ALR, DTT oxidation; inhibition, % (no concentration beside the values); actives 3.8% (n = 290,000);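 active means mean and each replicate at 75% or more; inconclusive means only one of the two met; inactive means neither met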;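 further: stock transfer was 7.5 nL into about 7.5 µL; 0% = neutral wells and 100% = wells with inactivated enzyme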
Target sequence (P55789 whole entry, looked up): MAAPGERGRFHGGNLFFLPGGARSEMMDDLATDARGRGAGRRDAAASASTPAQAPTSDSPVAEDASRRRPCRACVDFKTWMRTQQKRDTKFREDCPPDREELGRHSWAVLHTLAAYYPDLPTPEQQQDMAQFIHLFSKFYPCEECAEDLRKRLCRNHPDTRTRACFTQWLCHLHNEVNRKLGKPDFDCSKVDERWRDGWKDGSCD
Starred values were filed as active, the others as inactive; i = inactive; ? = inconclusive; nt = no result given; & = joins results of further samples.

SMILES	RanGTP-Impb inh	LANA-H2A inh	HNF4A DNA FP	Vif A3G	Calb FLC	Beta2AR agonist	ALR H2O2 inh
CCn1ncc(C2=NOC(C(=O)Nc3cc(OC)c(Cl)cc3OC)C2)c1C (configuration not stated)	?	-2.3	4.2	11%	0	-8	-6
Cc1cc(C=O)c(C)c2c1[nH]c1ccccc12	nt	nt	-3.9	5%	nt	17	nt
Cc1ccc(S(=O)(=O)N2CCN(C(=O)CNC(=O)c3ccc(Cl)cc3)CC2)cc1	nt	-1.8	-2.4	-3%	nt	4	-20
O=C(c1ccco1)N1CCN(C(=O)c2cc(-c3ccncc3)nc3ccc(Br)cc23)CC1	-1.8	4.1	21	-5%	-2	5	nt
Cc1ccc2nc(SCC(=O)c3c(C)[nH]c4ccccc34)[nH]c2c1	1.0	-3.3	-1.4	-5%	9	4	49
CC(C)c1nnc(SCC(=O)Nc2ccc3c(c2)OCO3)n1C	1.3	-12	3.3	13%	4	-10	-3
CC(C)n1cnc2cc(NCc3ccccc3O)ccc21	6.7	1.7	2.1	nt	10	3	99*
CCn1c(CN(C)c2ccccc2)nc2ccccc21	1.3	3.3	-2.2	nt	-6	-8	98*
COc1ccc(C2CC(c3ccc(F)cc3)Nc3nc(N)nn32)cc1OC (configuration not stated)	-0.1	-3.8	-0.1	1%	-2	8	-5
NC(=O)C1CCN(C(c2ccccc2F)c2nnnn2Cc2ccco2)CC1 (configuration not stated)	0.0	1.5	7.9	28%	-10	7	nt
COc1ccc(-c2nnc(NC(=O)Cc3ccccc3)o2)cc1	2.7	3.7	3.4	nt	-2	1	-1
COc1ccc(NC(C)=O)cc1NC(=O)CN1CCN(CC(=O)Nc2ccccc2Cl)CC1	-1.6	0.5	2.9	-6%	2	-4	0
Cc1nn(-c2ccccc2)c(C)c1NC(=O)COC(=O)CCOc1ccccc1	0.3	i	1.9	7%	3	-2	-13
COC(=O)c1cc(S(=O)(=O)NCC2CCN(CCc3cccs3)CC2)cn1C	2.4	1.0	0.7	nt	4	0	-8
COc1ccc(NC2CCCN(C(=O)c3cccc(C(F)(F)F)c3)C2)cc1OC (configuration not stated)	2.9	0.2	3.1	nt	30	4	?
Cc1cc(C)c2c(NC(=O)C3CC3)nn(C)c2n1	-2.5	-1.1	-6.9	-4%	8	5	5
COc1ccccc1NC(=O)CCc1c(C)nc2c(-c3ccc(F)cc3)c(C)nn2c1C	-3.7	0.8	-1.5	-8%	-6	-8	1
Cc1ccccc1N(C(=O)c1snc(C(N)=O)c1N)C(C(=O)NCc1ccccc1)c1ccc(O)cc1 (configuration not stated)	3.1	0.5	3.2	nt	-8	-1	nt
COc1ccccc1C(=O)O[C@H]1[C@H](Cc2ccccc2)NS(=O)(=O)[C@H]2C[C@@H]3C=C[C@]12O3	nt	-9.9	4.0	nt	nt	-2	-8
CN(C)S(=O)(=O)c1ccc(C(=O)Nc2ccccn2)cc1	3.4	4.2	2.5	-2%	-10	-8	-3
CCC1CN(C(=O)NCc2ccc(C)cc2)c2ccccc2O1 (configuration not stated)	6.6	4.4	1.5	-3%	6	-3	-6
CC(C)Nc1nc(NNc2nc(Cl)nc(NC(C)(C)C)n2)nc(NC(C)C)n1	0.3	6.2	-6.2	nt	-14	-9	2
O=S(=O)(c1c(F)cccc1F)N1CCN(Cc2c(O)ccc3ccccc23)CC1	nt	0.1	2.7	-4%	nt	-6	-13
Cc1c(NC(=O)CSc2nnc3c4ccccc4n(CCc4ccccc4)c3n2)c(=O)n(-c2ccccc2)n1C	?	5.7	2.9	3%	19	2	-51
O=C(CSc1nnc(Cc2cccs2)n1-c1ccccc1)Nc1ccc2c(c1)OCCO2	5.3	0.5	-1.8	1%	-1	-9	-8

Taken from above.
Beta2AR agonist result of Cc1ccc2nc(SCC(=O)c3c(C)[nH]c4ccccc34)[nH]c2c1 → 4
ALR H2O2 inh result of O=S(=O)(c1c(F)cccc1F)N1CCN(Cc2c(O)ccc3ccccc23)CC1 → -13
ALR H2O2 inh result of COc1ccccc1C(=O)O[C@H]1[C@H](Cc2ccccc2)NS(=O)(=O)[C@H]2C[C@@H]3C=C[C@]12O3 → -8

Other entries follow.
SMILES	RanGTP-Impb inh	LANA-H2A inh	HNF4A DNA FP	Vif A3G	Calb FLC	Beta2AR agonist	ALR H2O2 inh
O=S(=O)(Nc1ccc2c(c1)OCCO2)c1cccc(F)c1	-1.1	-1.7	1.6	nt	0	13	8
COCCNC(=O)CN(C(=O)Cn1nnc2ccccc21)c1ccccc1C	1.0	-1.6	-1.2	?	-9	0	0
CCOCCCn1c(=N)c(C(=O)NCc2ccc3c(c2)OCO3)cc2c(=O)n3ccccc3nc21	29*	nt	nt	15%	-20	nt	nt
COc1cc(CN2CCNC(=O)C2CC(=O)N(C)CCC2CCOCC2)cc(OC)c1 (configuration not stated)	5.8	2.1	-1.0	nt	-1	4	-6
Clc1ccc(-c2cn(-c3ccccc3)c3[n+]2CCS3)cc1	4.4	-0.4	-1.2	6%	5	-10	1
N#Cc1ccc(/C=C/C(=O)c2ccco2)cc1	-2.6	2.8	1.6	-4%	1	6	5
COc1ccc(C2c3ccc4ccccc4c3Oc3ncn(CCN4CCOCC4)c(=N)c32)cc1 (configuration not stated)	-2.8	0.2	3.9	-8%&3%	101*	5	-53
CCOc1ccc(C(=O)OCC(=O)Nc2cccc(S(=O)(=O)N3CCCC3)c2)cc1	nt	-5.8	-0.3	-9%	nt	0	-1
COc1ccc(CN2C(=O)c3cccnc3C2=O)cc1S(=O)(=O)N1CCCCC1	26	2.8	3.9	nt	-3	-12	-3
S=c1[nH]nc(Cn2nnc3ccccc32)n1-c1ccccc1	-0.5	-5.6	-1.7	67%	-3	1	54
CC(=O)c1c(C)[nH]c(C(=O)OCC(=O)NCC(C)C)c1C	1.2	-3.4	1.3	-6%	-5	-7	-77
N#C/C(C(N)=O)=C1/SC=C(c2ccccc2)N1c1ccccc1	2.4	-0.2	2.6	-7%	2	2	-3
O=C(CCNC(=O)C1CCN(S(=O)(=O)c2ccc(F)cc2)CC1)NCCc1cccc(F)c1	2.0	9.7	8.7	5%	-2	-1	-21
CCOC(=O)c1[nH]cnc1C(=O)NC(C)C	0.6	-8.4	-0.5	-5%	6	-2	nt
CCC(C)[C@H](NC(=O)N1CC(=O)Nc2ccccc21)C(=O)Nc1nccs1 (some centres not stated)	-1.2	-3.8	-1.6	nt	3	9	4
CN(C(=O)c1cccc(N2C(=O)C3CC=CCC3C2=O)c1)C1CCCCC1 (configuration not stated)	6.6	-3.1	-2.5	6%	9	-2	3
O=C(Nc1ccccc1)N1CCc2ccccc2C1	-3.7	0.5	2.0	0%	5	-5	2
O=C(O)CS(=O)(=O)c1ccc(C(F)(F)F)cn1	-2.1	3.3	3.5	-4%	4	3	-10
Cc1nc2sc(C(c3cccc(F)c3)N3CCC(O)CC3)c(O)n2n1 (configuration not stated)	-0.6	-2.7	2.8	-4%	0	2	0
CC(NC(=O)COC(=O)c1cn(-c2ccccc2)nc1-c1cccs1)c1ccccc1 (configuration not stated)	-2.5	-4.0	1.5	-68%	-4	-24	-19
CCN(Cc1nc(-c2ccccc2)no1)C(=O)c1ccoc1C	-2.0	1.6	-1.8	nt	-1	0	-31
COc1ccc(NC(=O)C23CCC(C)(C(=O)O2)C3(C)C)cc1 (configuration not stated)	5.5	-2.4	3.2	15%	-11	-7	-13
COc1ccc(C(=O)C(C)OC(=O)CN2C(=O)c3ccccc3C2=O)cc1 (configuration not stated)	nt	-1.4	-0.4	1%	nt	3	0
COC(=O)CSc1nc2ccccc2nc1SCC(=O)OC	?	-2.8	1.7	-11%	12	11	-2
CS(=O)(=O)c1ccc(C(=O)OCC(=O)NCc2cccs2)cc1[N+](=O)[O-]	nt	3.4	3.9	-5%	nt	17	0

Continued; it opens with the two that closed the last part.
SMILES	RanGTP-Impb inh	LANA-H2A inh	HNF4A DNA FP	Vif A3G	Calb FLC	Beta2AR agonist	ALR H2O2 inh
COC(=O)CSc1nc2ccccc2nc1SCC(=O)OC	?	-2.8	1.7	-11%	12	11	-2
CS(=O)(=O)c1ccc(C(=O)OCC(=O)NCc2cccs2)cc1[N+](=O)[O-]	nt	3.4	3.9	-5%	nt	17	0
COc1ccccc1C1=NOC(C)(c2nnc(Cc3ccccc3)o2)C1 (configuration not stated)	0.7	0.1	-2.4	nt	-11	-8	1
CC(=O)OCN(C#N)c1nc(N(C)C)nc(N(C)C)n1	0.2	1.8	1.8	?	17	3	nt
O=C(O)CSc1ccnc2cc(Cl)ccc12	0.9	-2.3	-0.3	-10%	-4	-8	-10
COCCn1c(C)cc(C(=O)COC(=O)c2n[nH]c3ccccc23)c1C	-4.3	-2.4	-2.9	-2%	4	-6	6
Cc1ccc(S(=O)(=O)Nc2c(C)cc(C)nc2Cl)cc1	2.8	8.5	3.1	5%	-14	-8	-1
CC[C@@]12C(=O)N(c3cccc(F)c3)C(=O)N1[C@H](c1ccc(Cl)cc1)[C@@H]1C(=O)N(C3CCCCC3)C(=O)[C@@H]12	-1.9	7.6	2.0	nt	2	-2	-6
c1ccc(Oc2c3ccccc3nc3ccccc23)cc1	8.6	-3.0	nt	0%	2	nt	13
CC1CCN(C(=O)c2cc3ccccc3o2)CC1	-0.5	3.4	3.1	-2%	-5	2	6
COc1ccc(OCC(=O)Nc2ccc(N3CCN(C(=O)c4ccco4)CC3)cc2)cc1	4.9	-3.5	-3.5	6%	12	2	2
CCCN1CCN(CCCNC(=O)c2ccc(CS(=O)c3ccccc3C)o2)CC1 (configuration not stated)	2.0	-17	3.2	nt	6	-1	1
COc1ccc(OC)c(C(O)c2coc3ccc(O)c(CN4CCOCC4)c23)c1 (configuration not stated)	6.9	5.7	1.3	11%	36	-2	0
Cc1ccccc1S(=O)(=O)NC1=NCCCCC1	-1.6	-1.1	1.2	-6%	-5	-4	-3
CCOC(=O)c1ccc(N2C(=O)CC(N(C)Cc3ccccc3)C2=O)cc1 (configuration not stated)	3.7	-0.8	-1.2	-2%	-4	9	0
Cc1oc(=O)c(NC(=O)c2ccccc2)cc1C(=O)c1ccccc1	2.6	-0.3	-0.8	-4%	?	2	71
CCc1cc2c(=O)nc3n(c2s1)Cc1ccccc1/C3=C(/O)c1ccccc1Cl	-61	-6.0	-1.4	4%	-5	9	8
CCCNC(=O)COC(=O)c1[nH]c(C)c(C(=O)OCC)c1C	-0.4	-2.2	-2.2	4%	-7	-2	-5
COc1ccccc1NC(=O)CSc1nnc(CC(=O)Nc2ccccc2F)n1C	4.3	5.9	0.8	nt	15	4	nt
CC(C)(C)c1ccc(OCCCCCCN2CCNCC2)cc1	-0.1	2.4	1.0	nt	-18	38	22
Cc1cc(C)cc(OCC(=O)N2Cc3ccccc3CC2C(=O)O)c1 (configuration not stated)	4.6	0.3	2.6	nt	-15	6	7
CCOC(=O)C1(Cc2cccc(Cl)c2)CCCN(C(=O)CCNC(C)=O)C1 (configuration not stated)	-1.3	3.0	1.6	nt	-15	1	12
O=C(NC1CCCC1)C(c1ccccc1F)N(C(=O)c1csnn1)C1CC1 (configuration not stated)	0.1	-2.7	-3.1	nt	8	12	-29
Cc1oc2c(O)c(O)ccc2c(=O)c1-c1ccc(Cl)cc1	-2.8	5.4	-1.6	nt	10	-7	99*
Cc1[nH]c(=O)[nH]c(=O)c1S(=O)(=O)N1CCCCC1	3.2	2.9	-2.3	0%	12	12	-4
COc1ccc(C(=O)C2CCCN(C(=O)c3cc(C4CC4)[nH]n3)C2)c(C)c1 (configuration not stated)	2.9	-0.6	-3.1	nt	7	-4	-10

This is a random part of the collection. Share with any hit: about 6.3%.
